Source: PubChem
Beta cell apopt = inhibitors of cytokine-induced beta cell apoptosis, primary screen, luminescence. INS-1E cytokine-induced death, ATP luminescence, 48 h; percent of positive-control rescue, neutral wells zero. protection from apoptosis, % (test concentration not listed). hit rate 0.8% among 300,000. AID 435005, 2010;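 active = all replicates at 75% or more, or half of them and the mean; inconclusive = half reach 75% but not the mean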;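 also: 0% = cytokine-treated negative control wells and 100% = positive control rescue; higher means more ATP so stronger rescue from cytokine killing; wells of about 40 µL received 100 nL stock; the first replicate is given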
MLL AF4-AF9 inh = inhibitors of AF4 peptide binding to AF9, primary screen, biochemical, AlphaScreen, biotin-AF4 peptide, FLAG-AF9, single point. Protein AF-9 (Homo sapiens), P42568. AID 651704, 2012. inhibition, % at 10 µM. hit rate 0.47% among 350,000;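 active = every replicate reaching a set inhibition limit, whatever the replicate mean, cut at about 25% in these data; inconclusive = mean inhibition reaches that limit but some replicates miss it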;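 also: 0% = plate neutral control median and 100% = total signal loss; the record names both 10 and 1 µM as test concentration; the first replicate is given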
Target sequence (P42568 whole entry, looked up): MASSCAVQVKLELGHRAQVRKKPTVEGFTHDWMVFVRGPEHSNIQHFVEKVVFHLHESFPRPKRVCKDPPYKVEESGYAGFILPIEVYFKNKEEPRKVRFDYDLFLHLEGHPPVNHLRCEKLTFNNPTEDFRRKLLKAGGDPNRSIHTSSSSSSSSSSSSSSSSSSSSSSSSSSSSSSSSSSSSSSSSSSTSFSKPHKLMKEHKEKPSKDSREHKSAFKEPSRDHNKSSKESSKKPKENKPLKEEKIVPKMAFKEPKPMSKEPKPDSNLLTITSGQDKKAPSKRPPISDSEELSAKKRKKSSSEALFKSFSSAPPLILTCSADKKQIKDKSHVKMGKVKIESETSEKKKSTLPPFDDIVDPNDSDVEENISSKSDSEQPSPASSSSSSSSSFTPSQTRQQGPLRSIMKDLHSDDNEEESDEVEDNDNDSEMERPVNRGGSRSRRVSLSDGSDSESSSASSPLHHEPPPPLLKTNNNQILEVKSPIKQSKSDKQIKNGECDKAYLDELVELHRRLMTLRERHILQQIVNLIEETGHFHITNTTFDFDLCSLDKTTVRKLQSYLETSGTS
T cruzi repl = inhibitors of intracellular T. cruzi growth, primary screen, luminescence, NIH3T3 host cells; T. cruzi beta-gal in NIH3T3, 90 h; inhibition, % (no concentration beside the values); hit rate 1.4% among 300,000; AID 1885, 2009;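 active = mean inhibition across valid replicates above about 55%, limit read from the data; inconclusive = mean below that limit but half or more replicates reach it; inactive = mean below it, under half of replicates reach it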;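 also: signal also drops with host cell toxicity which is not excluded here; 0% = plate median of DMSO wells and 100% = zero luminescence signal; higher percent means less beta-gal luminescence so fewer parasites; stock transfer was 50 nL into about 50 µL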
RanGTP-Impb inh = inhibitors of RanGTP-importin-beta interaction, primary screen, biochemical, FRET, CFP-Ran, YFP-importin-beta, homogeneous. cell-free CFP-Ran/YFP-importin-beta FRET ratio. inhibition, % (concentration not given with the values). Ran GTPase (GTP-bound) - importin-beta complex. AID 2216, 2009. hit rate 1.1% among 300,000;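 active = most replicates above 15%; inconclusive = exactly half above 15%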;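 also: 0% = DMSO wells and 100% = Ran loaded with GDP instead of GTP; wells of about 40 µL received 100 nL stock; the first replicate is given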
Calb FLC = C. albicans growth inhibition with fluconazole, primary screen, CaCi-2 strain, Alamar Blue fluorescence; C. albicans CaCi-2 (fluconazole-resistant clinical isolate) + fluconazole, 48 h; growth inhibition, % (no concentration beside the values); hit rate 0.57% among 300,000; AID 1979, 2009;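 active = most replicates above 75%; inconclusive = exactly half above 75%; inactive = most below 75%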;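 also: all wells also contain fluconazole at 8 µg/ml as a sub-toxic cotreatment; 0% = median of DMSO wells and 100% = median of geldanamycin control wells; wells of about 8 µL received 7.5 nL stock; the first replicate is given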
rRNA inh HTS = reduced GFP signal of wild-type E. coli, primary screen, bacterial rRNA inhibitor project, GFP/RFP fluorescence, OD600, single point; E. coli WT GFP vs humanized-ribosome RFP mutants, 24 h; active compounds read low; DMSO median 0, no signal -100; GFP signal change (wild-type ribosome), % (no concentration beside the values); hit rate 1.6% among 350,000;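 active = significant combined selectivity score with lowered wild-type GFP, culture density cut under 30%, mutant RFP and density less affected; inactive = any of these conditions unmet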; also: one replicate is shown; some compounds called inactive have numbers as strong as hits
Vif TR-FRET = inhibitors of Vif binding to APOBEC3G peptide, primary screen, biochemical, TR-FRET, GST-Vif 1-94, biotin-A3G peptide, dose response retest (AID 1117319) | Virion infectivity factor (Human immunodeficiency virus type 1 group M subtype B (isolate … | one-dose inhibition, %; IC50 in µM for titrated hits | TR-FRET GST-Vif / biotin-A3G peptide binding; higher % means a stronger effect; test concentration not given here; strong numbers were not always called active | hit rate 0.57% among 260,000;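 active = above the screen mean plus three standard deviations and confirmed in dose response; inconclusive = results disagree or hit not tested in dose response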;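 also: Vif residues 1-94 fused to GST binding biotinylated APOBEC3G peptide 110-148; 0% = full assay without inhibitor and 100% = GST in place of GST-Vif; retest series ran down from 100 µM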
A1 inh = caspase 3/7 activation in MEF A1-2A-BIM cells, primary screen, A1 inhibitor project, cell-based, luminescence, HTS | Caspase-Glo 3/7 luminescence, 3 h; percent of clofoctol response, vehicle zero | hit rate 0.066% among 330,000 | caspase activation, % (concentration not given with the values);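 active = over half of replicate activation scores above 10%, or exactly half above 10 with the replicate mean above 10; inconclusive = replicate mean below 10 yet half the replicates above 10; inactive = over half of replicates below 10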;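 also: wells of about 30 µL received 50 nL stock; many hits fall short of the cut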
rRNA inh HTS OD600 = second read-out of rRNA inh HTS, no call of its own (marks repeat the call); OD600 change, %; measured here: OD600 growth;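 optical density of the mix in the first replicate; 0 = DMSO median and -100 = no signal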
rRNA inh HTS RFP = also measured in rRNA inh HTS; calls as there; RFP signal change, %; measured here: RFP humanized mutant strains;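 first replicate; 0 = DMSO median and -100 = no signal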
Active calls of the source: *; ? = inconclusive; / = no result given; & = joins results of further samples. A portion of the library (hit frequency here may not be typical).

SMILES	Beta cell apopt	MLL AF4-AF9 inh	T cruzi repl	RanGTP-Impb inh	Calb FLC	rRNA inh HTS	rRNA inh HTS OD600	rRNA inh HTS RFP	Vif TR-FRET	A1 inh
CCOc1ccc(NC(=O)CC2C(=O)N(CC)C(=S)N2CCN2CCOCC2)cc1 (stereo unspecified)	2	-0.2	22	4.8	8	1	6	-8.5	2%	-0.1
Cc1nn(C(C)C(=O)NCc2ccco2)c(=O)c2nn(-c3ccccc3)c(C)c12 (stereo unspecified)	-1	-1.1	-7	2.8	-3	3	4	-0.8	/	0.7
CC(=O)Nc1ccc(S(=O)(=O)n2cnc3cc(C)c(C)cc32)cc1	-3	/	0	-0.7	6	/	/	/	16%	-1.1
O=C(CN1CCCCCC1)Nc1ccc(S(=O)(=O)N2CCCCC2)cc1	-2	1.9	0	2.2	-4	-1	-2	1.7	/	0.4
Cc1nn(-c2ccccc2)c(C)c1NC(=O)Cc1cccs1	-3	-2.0	2	6.3	-3	6	-1	-1.6	8%	0.2
CC(=O)Nc1ccc(S(=O)(=O)N2CCN(c3cc(C)ccc3C)CC2)cc1	1	3.1	17	-6.8	-6	-26	-70	3.8	3%	0.0
Cc1onc(-c2ccccc2)c1C(=O)N1CCCN2C(=O)c3ccccc3C21 (stereo unspecified)	-6	-1.7	-2	2.4	-12	11	-2	2.9	-12%	-0.1
O=C(CSCC(=O)Nc1cccc2ccccc12)Nc1cccc2ccccc12	5	-98	1	-2.2	1	3	9	4.6	28%	-0.1
CC(=O)N1CC2(C)CN(C(C)=O)CC(C)(C1)C2	-9	-3.4	3	-3.6	-14	/	/	/	0%	0.1
O=C(Nc1ccc(N2CCOCC2)c(Cl)c1)c1ccco1	/	/	-8	2.1	9	/	/	/	5%	-4.5
C[C@@H]1CC[C@]2(O[C@H](CCO)C[C@H](O)[C@H]2O)O1	-4	0.7	-10	-5.4	-10	12	8	3.2	/	-0.6
CN1CCC(N(C)C(=O)c2ccc(Cl)c(S(=O)(=O)N(C)c3ccc(Cl)cc3)c2)CC1	4	-0.2	/	/	/	-3	-27	2.1	0%	1.2
c1ccc(-n2ncc3c(NCCCN4CCOCC4)ncnc32)cc1	-8	/	-5	-3.4	-4	/	/	/	-5%	0.5
O=C(COC(=O)Cc1ccc(F)cc1)Nc1cc(S(=O)(=O)N2CCOCC2)ccc1N1CCCC1	2	2.8	-1	-3.9	0	0	9	-3.2	?	1.3
CCc1ccc(NC(=O)CCCn2nc(CC)n3c(cc4occc43)c2=O)cc1	0	-1.8	10	-2.3	-2	2	10	-0.4	2%	1.4
COc1ccc(C(=O)Nc2ccc3oc(Cc4ccc(Cl)cc4)nc3c2)cc1OC	0	8.5	17	4.3	-4	-14*	-7.8*	9.4*	8%	0.2
N#Cc1nc(COc2ccc(-c3ccccc3)cc2)oc1NCCCN1CCOCC1	6	/	-4	5.3	28	/	/	/	?	0.8
CCCCn1nnc(NC(=O)C(c2ccccc2)c2ccccc2)n1	-1	-1.8	-23	3.2	-29	-13	-14	1.2	/	0.6
OC(c1ccccc1)c1nc2ccccc2[nH]1 (stereo unspecified)	-10	-1.3	-7	-4.4	3	0	-2	0.3	/	-0.2
O=c1cc(CSc2nnnn2-c2ccccc2)nc2sccn12	-7	-1.4	-15	-3.4	8	-3	-7	-1.9	12%	-0.2
COc1ccc(C2C(C#N)=C(N)OC3=C2C(=O)CC(C)(C)C3)c([N+](=O)[O-])c1OC (stereo unspecified)	-11	/	-7	?	-18	/	/	/	-1%	0.7
CCCN(Cc1ccccc1)C(=S)Nc1ccc(OCC)cc1	-2	-3.2	-6	0.2	-14	0	-8	-8.1	-10%	0.2
O=C(c1ccccc1)N1CCCC(C(=O)N2CCN(c3ccccc3)CC2)C1 (stereo unspecified)	1	-3.2	-1	3.1	-3	-4	2	0.5	27%	-0.7
CC(C)CNC(=O)C(=O)NNC(=O)c1ccco1	-3	-2.0	-15	0.4	-5	11	-1	-0.7	1%	2.1
CCN(CC(=O)Nc1c(F)cccc1F)C(=O)/C=C/c1ccc(C)cc1	-3	-0.5	/	/	/	-8	-5	1.5	-2%	12*
O=C(COc1ccc(Cl)cc1Cl)NN=C1c2ccccc2-c2ccccc21	-7	/	0	-4.7	-3	/	/	/	-11%	-0.1
O=C(Cc1ccccc1)Nc1scc(-c2ccccc2)c1C(=O)N1CCOCC1	9	/	-10	-0.8	-4	/	/	/	64%	0.2
O=C(Nc1ccc(-c2nc3cc(Cl)ccc3c(=O)o2)cc1)c1ccco1	1	/	3	1.4	3	/	/	/	/	-0.1
Cc1ccc(-c2nnc(Nc3ccc(C(=O)N(C)C)cc3)c3ccccc23)cc1S(=O)(=O)NC(C)(C)CO	10	9.7	-5	3.4	-1	-13	-12	-5.0	?	-0.1
CN1CC(=O)N(CC(=O)Nc2ccc(Cl)c(C(F)(F)F)c2)C1=O	0	/	-9	0.0	-4	/	/	/	-6%	0.5
CCc1nnc2c3cnn(-c4ccccc4)c3ncn12	1	/	-3	3.3	10	/	/	/	4%	-4.2
O=C(CSc1nnc(CNC(=O)C23CC4CC(CC(C4)C2)C3)n1-c1ccc(F)cc1)Nc1ccc(F)cc1	-10	3.4	9	4.3	1	10	5	-7.6	/	0.6
CCOC(=O)N1CCN(C(=O)c2cn(C)c(=O)c3c2c2ccccc2n3C)CC1	4	/	13	?	15	/	/	/	-1%	0.7
CCCCOC(=O)Nc1sc2nc(C)cc(C)c2c1-n1cccc1	-2	/	/	-0.9	-5	/	/	/	-5%	0.5
O=C(NCc1ccc(Cl)cc1)C1CCN(S(=O)(=O)c2cccnc2)CC1	/	-1.2	4	1.1	0	-5	-10	-0.9	-1%	1.0
Cc1ccc2sc(-c3ccc(NC(=O)/C=C\C(=O)O)cc3)nc2c1	/	1.7	-18	-11	35	-43	-44	-3.3	13%	/
COc1cc(=O)n(C)c2c(OCC3OC(C)(C)OC3(C)C)cccc12 (stereo unspecified)	1	-1.8	7	5.6	7	-22	-19	-4.1	3%	-0.1
O=C(O)CSCC(=O)NCc1ccc(Cl)cc1	1	-4.6	-16	1.2	-3	3	0	-0.6	0%	0.1
Cc1nonc1C1CCCN1C(=O)c1cc(COc2ccc(F)cc2F)on1 (stereo unspecified)	0	-1.0	-2	1.6	?	-27*	-9.6*	-1.0*	/	-5.0
CCOc1ccc(C(O)Cc2nc3ccccc3n2C)cc1 (stereo unspecified)	-11	/	-14	0.3	7	/	/	/	/	-0.9
CCc1nnc(NS(=O)(=O)c2ccc(NC(=O)c3ccccc3)cc2)s1	-1	-1.8	0	?	2	6	5	2.0	/	0.8
Cc1cc(NC(=O)c2ccccc2)nc2c1c(=O)oc1ccccc12	1	-0.7	11	2.9	18	12	28	12	/	0.1
COc1ccc(C(=O)N2CCN(c3c(C)cccc3C)CC2)cc1OC	-11	3.7	10	-1.3	17	-8	-15	3.1	?	-2.0
Cc1cc(C)c2c(=O)[nH]c(=O)n(Cc3ccccc3)c2n1	5	/	11	2.9	13	/	/	/	12%	0.1
Cc1ccc(O)c(-c2[nH]ncc2C(=O)c2ccc(Br)cc2)c1	-7	3.1	-5	-2.1	36	-20	-35	-6.6	3%	-2.4
COc1cc(C#N)ccc1OC(=O)C1CCN(C(=O)c2ccc(F)cc2)CC1	-2	0.7	-5	0.6	-1	2	9	-1.1	0%	0.0
Cc1ccc(C(C(=O)NCc2ccc(F)cc2)N(C(=O)c2csnn2)C2CC2)o1 (stereo unspecified)	-3	/	-3	0.6	-2	/	/	/	0%	1.7
COc1ccc(S(=O)(=O)N(C)C[C@H]2Oc3c(NC(=O)NC(C)C)cccc3C(=O)N([C@H](C)CO)C[C@@H]2C)cc1	-5	-3.4&-0.3	/	/	/	-4&1	-5&-6	1.0&4.0	1%	0.1
CCOc1ccc(C2C(C#N)=C(N)N(N(C)C)C3=C2C(=O)CC(C)(C)C3)cc1 (stereo unspecified)	-4	0.9	-6	2.9	-3	2	6	3.5	4%	-0.4
COc1ccc(OCCCC(=O)Nc2cc(S(=O)(=O)N3CCCCC3)ccc2C)cc1	-1	3.2	/	/	/	8	-21	2.8	/	1.7

Additional records.
SMILES	Beta cell apopt	MLL AF4-AF9 inh	T cruzi repl	RanGTP-Impb inh	Calb FLC	rRNA inh HTS	rRNA inh HTS OD600	rRNA inh HTS RFP	Vif TR-FRET	A1 inh
CCOc1cc(/C=C2\C(=O)N(Cc3ccco3)C(C)=C2C(=O)OC)ccc1O	-5	19	-18	4.2	28	11	4	1.1	24%	0.4
COc1ccc(-c2nn(CCC(=O)O)cc2/C=N/NC(N)=S)cc1	-2	-14	-2	2.1	-8	9	6	-2.7	5%	1.4
COCCNC(=O)C(OC(=O)c1ccco1)c1ccccc1Cl (stereo unspecified)	2	-2.3	-4	0.9	-1	-5	-1	-1.6	/	-0.1
CSC1=NC(=O)/C(=C/c2ccc(SC)cc2)S1	-5	0.4	-23	2.7	45	-22	-35	-2.2	0%	-0.3
COc1ccc2oc(C(=O)NC3CCCCC3)c(C)c2c1	/	0.1	22	-0.8	2	4	5	1.2	-5%	-4.5
CCC(C)c1ccc(NC(=O)c2ccco2)cc1 (stereo unspecified)	-5	-3.3	-1	-3.2	-2	-23	-26	-9.5	/	0.1
Cc1ccc(NN2C(=O)C=C(c3ccccc3)C2=O)cc1	/	-2.3	12	2.4	-46	-5	-1	-1.3	9%	/
CC1(C(=O)OCC(=O)Nc2cccc(S(=O)(=O)NC3=NCCCCC3)c2)CC1(Cl)Cl (stereo unspecified)	-8	-3.3	8	0.6	-20	-4	2	-1.7	-5%	0.1
O=C(NCC1CCCO1)c1ccc2nc(N3CCCCC3)sc2c1 (stereo unspecified)	0	8.4	13	1.4	3	-5	3	-3.3	1%	0.2
Cc1c(N)cc(C(=O)N2CCOCC2)cc1[N+](=O)[O-]	-3	/	-4	5.0	-4	/	/	/	32%	0.3
O=C(CN1C(=O)C2CCCCC2C1=O)Nc1nc(-c2ccccn2)cs1 (stereo unspecified)	11	/	10	5.7	-2	/	/	/	1%	0.0
